Screens as filed in PubChem BioAssay.
miR-21 reporter – miR-21 reporter, rising signal | 340,000 tested, under 10 active | Potency, µM (titrated, usually from 38.3 µM), without a hit: at the highest dose reporter change, positive = more light | HeLa miR-21 FLuc reporter, luciferase, 48 h | AID 2288; active = well fitted rising curve with a large enough effect; inconclusive = small, poorly fitted or top-dose-only effect; inactive = no such curve, though single readings can be large or run the other way;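 also: % of control where 0% means no effect; miR-21 action dims this reporter so a rising signal means less miR-21 action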
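Using DMEM plus 10% FBS, HeLa miR-21-FLuc cells are incubated with test compounds (final up to about 40uM) for 48 hours; firefly luciferase signal is then imaged following reagent-mediated lysis.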
An asterisk follows results filed as active; ? = inconclusive. The list is partial; count on the stated rates, not on these rows.

miR-21 reporter	SMILES
-1.3%	Cc1cc(C)c(NC(=O)CSc2ncc(S(=O)(=O)c3ccc(C(C)(C)C)cc3)c(=O)[nH]2)c(C)c1
-14.2%	COc1ccc(Cn2c(=O)c3cccnc3n(Cc3cccc(F)c3)c2=O)cc1
-4.4%	COc1ccc(NC(=O)COCc2cc(-c3ccco3)on2)cc1Cl
23.9%	CC(C)(C)OC(=O)N1CCC(c2nnc(SCc3ccccc3F)o2)CC1
0.4%	Cc1cccc(NC(=O)CN2C(=O)COc3ccc(S(=O)(=O)N4CCC(C)CC4)cc32)c1C
9.7%	COc1cccc(CN2C(=O)C3(SCC(=O)N3c3ccc(C)c(Cl)c3)c3ccccc32)c1 (stereo not drawn)
1.3%	CN(C)c1cccc(C(=O)N2CCC(c3c[nH]c4ccccc34)(c3c[nH]c4ccccc34)CC2)c1
-1.1%	COc1ccc(-n2c(=O)c3ccccc3n(Cc3ccc(F)cc3Cl)c2=O)cc1OC
9.6%	COc1ccc(NC(=O)Cn2cc(C(=O)c3cccs3)c3ccccc32)cc1
24.0%	CCC(Oc1ccccc1)C(=O)N1CCN(Cc2cc(=O)n3nc(-c4cccc(C)c4)sc3n2)CC1 (stereo not drawn)
-3.0%	CCOc1ccccc1NC(=O)c1sc2nc(-c3ccc(OC)cc3)ccc2c1N
0.1%	O=c1c2oc3ccccc3c2n(Cc2cccc(Cl)c2)c(=O)n1Cc1ccc2c(c1)OCO2
26.4%	COc1ccccc1CN1CCC(CNC(=O)c2cnn(-c3ccc(C)c(C)c3)c2C2CCN(C(=O)OC(C)(C)C)CC2)CC1
-0.5%	Cn1cc(S(=O)(=O)c2ccccc2)c(=O)c2cc(F)c(N3CCN(c4ccc(F)cc4)CC3)cc21
-4.9%	COc1ccccc1NC(=O)N1CCN(Cc2nc3ccc(C)cc3o2)CC1
-1.6%	Cc1ccc(C(=O)NCC(c2cccnc2)N2CCc3ccccc32)cc1C (stereo not drawn)
0.4%	CCOc1ccc2ncc3c(-c4ccc(C)cc4)nn(-c4cccc(F)c4)c3c2c1
-12.4%	CC(C)C(=O)Nc1ccc2nc(SCC(=O)N3CCCC3)sc2c1
10.0%	O=C(CSc1nncn2c1cc1occc12)Nc1ccccc1C(F)(F)F
12.3%	COc1cccc(CNC(=O)Cn2c(=O)oc3cc(S(=O)(=O)N4CCCC4)ccc32)c1
-0.5%	COc1ccccc1C(=O)NNC(=S)NC(=O)c1cccs1
-5.5%	CCOc1ccccc1CNC(=O)c1cn(-c2ccc(OC)cc2)c(=O)c2ccccc12
-4.7%	O=[N+]([O-])c1ccc(C(c2sc3nc(-c4ccco4)nn3c2O)N2CCC3(CC2)OCCO3)cc1 (stereo not drawn)
1.8%	COc1cccc(NC(=O)C2=C(C)C(=O)OC23CCN(C(C)=O)CC3)c1
11.1%	O=S(=O)(c1ccccc1)N1CCC(c2ccncc2)CC1
3.6%	CC(NC(=O)c1ccc2c(c1)CCN2S(=O)(=O)c1ccccc1)c1ccccc1 (stereo not drawn)
11.3%	CCN1CCc2c(sc(NC(=O)CSc3ccccc3)c2-c2nc3ccccc3s2)C1
26.7%	Cc1cc(Nc2ccc(Br)cc2)n2nc(-c3ccccc3C)nc2n1
6.7%	O=S(=O)(NCC(c1cccs1)S(=O)(=O)c1ccccc1)c1ccc(F)cc1 (stereo not drawn)
-3.8%	CN(C)c1ccc(C(CNC(=O)c2ccccc2Cl)N2CCc3ccccc32)cc1 (stereo not drawn)

miR-21 reporter	SMILES
-6.7%	COc1ccccc1N1CCN(c2cc(C)nc3nc(-c4ccc(C)cc4)nn23)CC1
-1.3%	FC(F)(F)c1cccc(-n2cc(-c3ccccc3)c3c(N4CCCCC4)ncnc32)c1
21.1%	CCOC(=O)c1cccc(NC(=O)c2cc3c(-c4cccc(OC)c4)nn(C)c3s2)c1
-0.9%	COc1ccc2nc3oc(C(=O)N4CCN(c5cc(C)ccc5C)CC4)cc3cc2c1
?	Cc1ccc(NC(=O)C2CCN(C(=O)c3cnn(-c4ccccc4)c3-n3cccc3)CC2)cc1
-7.1%	COc1cccc(C2Nc3ccccc3-c3nnc(SCc4ccccc4)nc3O2)c1OC (stereo not drawn)
25.5%	CSc1ccc(CCNc2ncnc3onc(-c4ccc(Cl)cc4)c23)cc1
-19.2%	O=S1(=O)c2ccccc2N(Cc2ccccc2)c2ccccc21
-4.2%	COc1ccc(OC)c(NC(=O)N2CCC(CN3CCCCC3)CC2)c1
0.0%	Cc1ccc2nc(N3CCN(c4cccc(Cl)c4)CC3)c3nnnn3c2c1
0.1%	COc1ccc(OCC(=O)OCc2cc(=O)n3nc(C4CC4)sc3n2)cc1
-6.1%	COc1ccc(C2C(=O)N(C3CCC(C)CC3)CC(=O)N2Cc2ccccc2Cl)cc1OC (stereo not drawn)
2.7%	Cc1cc(C)cc(NC(=O)C2CCN(S(=O)(=O)c3cn(C)cn3)CC2)c1
-0.1%	CCOc1ccccc1NC(=O)CN1CCN(S(=O)(=O)c2ccc(Br)cc2)CC1
-10.5%	O=C(Cc1ccccc1)Nc1sc2c(c1C(=O)Nc1ccc(Br)cc1)CCCC2
-8.2%	COC(=O)c1ccc(C(=O)OC)c(NC(=O)c2ccc(-c3ccccc3)s2)c1
6.4%	Fc1ccc(-c2ccc(CNCCSc3nnnn3-c3ccccc3)o2)cc1Cl
-14.9%	COc1ccc(-c2nc3n(n2)C(c2cccc(C)c2)C(C(N)=O)=C(C)N3)cc1OC (stereo not drawn)
-2.7%	COC(=O)C1=C(C)N(C(C)C)C(=O)C1(NC(=O)c1ccc(C(C)(C)C)cc1)C(F)(F)F (stereo not drawn)
-32.5%	CC1CCC(NC(=O)c2ccc3c(c2)N(Cc2cccc(Cl)c2)C(=O)c2ccccc2S3=O)CC1 (stereo not drawn)
-3.3%	CSc1ccc(CCNC(=O)Cn2ncc3c(=O)oc4ccccc4c32)cc1
14.1%	CC(C)OCCCNC(=O)CSc1c2c(nc3ccc(Cl)cc13)CCCC2
-0.4%	CCOC(=O)C1CCN(c2c(C(=O)c3ccc(C)cc3)cnc3ccc(F)cc23)CC1
-1.7%	O=C(CS(=O)(=O)c1cccc2nsnc12)NCc1ccccc1Cl
-4.3%	CC1=C(c2ccc(C(C)C)cc2)S(=O)(=O)NC1=NCc1ccc(Cl)cc1
0.0%	Cc1cccc(N2CCN(C3(c4ccccc4)C(=O)c4ccccc4C3=O)CC2)c1C
-1.9%	O=C(CSc1nc2ccccc2nc1Cc1ccc(Cl)cc1)N1CCN(c2ccccc2)CC1
8.8%	CCCCOc1ccc(CNC(=O)C2CCCN(c3nnc(-n4c(C)ccc4C)s3)C2)cc1 (stereo not drawn)
-2.4%	CCOc1ccccc1CN1CCc2nc(N3CCN(C)CC3)ncc2C1
-7.4%	CC(C)n1c(=N)c(C(=O)NCc2cccnc2)cc2c(=O)n3ccccc3nc21

Some of the entries so far, field by field:
mol: CCOC(=O)C1CCN(c2c(C(=O)c3ccc(C)cc3)cnc3ccc(F)cc23)CC1
  miR-21 reporter: -0.4%
mol: CC1CCC(NC(=O)c2ccc3c(c2)N(Cc2cccc(Cl)c2)C(=O)c2ccccc2S3=O)CC1 (stereo not drawn)
  miR-21 reporter: -32.5%
mol: CCC(Oc1ccccc1)C(=O)N1CCN(Cc2cc(=O)n3nc(-c4cccc(C)c4)sc3n2)CC1 (stereo not drawn)
  miR-21 reporter: 24.0%

Further structures follow:
miR-21 reporter	SMILES
0.3%	CCOc1ccc2oc(=O)cc(CN3CCN(c4ccc(OC)cc4)CC3)c2c1
0.8%	O=C1Nc2c(c(=O)[nH]c(=O)n2-c2ccccc2)C1(NS(=O)(=O)c1ccc(Cl)cc1)C(F)(F)F (stereo not drawn)
5.0%	COc1ccc(CCNC(=O)Cn2c(=O)n(-c3ccc(OC)c(OC)c3)c(=O)c3ccccc32)cc1OC
-0.3%	CN(Cc1ccccc1)c1nc2c(S(=O)(=O)c3ccccc3)nnn2c2ccsc12
-52.8%	COc1ccc(-c2nc3sc(CCNC(=O)c4ccco4)c(C)n3n2)cc1
-12.5%	COc1cccc(NC(=O)C2CCN(c3nn4cc(-c5ccc(F)cc5)nc4s3)CC2)c1
13.5%	CC(C)c1cnc2c(c1SCC(=O)Nc1cccc([N+](=O)[O-])c1)c(=O)n(C)c(=O)n2C
-3.3%	COc1ccc(NC(=O)C2CCN(c3ccc(Sc4ccc(C)cc4)nn3)CC2)c(OC)c1
0.9%	Cc1cccc(OCC(=O)Nc2nnc(S(=O)(=O)N3CCc4ccccc43)s2)c1
0.2%	O=C(Nc1ccc(C(=O)N2CCN(c3ccc(Cl)cc3)CC2)cc1)c1nsc2ccccc12
?	O=C(Nc1ccc(C(F)(F)F)cc1)C(Cc1ccccc1)n1cccc1 (stereo not drawn)
-0.2%	Cc1cc(C)cc(NC(=O)N2CCC(CN3CCCCCC3)CC2)c1
14.9%	Cn1cc(S(=O)(=O)N2CCCCCC2)cc1C(=O)N1CCN(c2cccc(C(F)(F)F)c2)CC1
18.4%	CCCNC(=O)Cn1nc(-c2ccc(C)c(C)c2)c2cnc3ccc(OC)cc3c21
-3.6%	COc1cc(C(=O)Nc2cc3c(cc2C)n(C)c(=O)c(=O)n3C)cc(OC)c1OC
22.2%	Cc1nn(-c2ccccc2)c2sc(C(=O)Nc3cccc(Cl)c3)cc12
19.2%	COc1ccc(C(=O)N2CC(=O)Nc3ccc(F)cc3C2c2ccc(F)cc2)c(OC)c1 (stereo not drawn)
16.9%	COc1ccccc1N1CCN(c2ccc(=O)n(CC(=O)NCc3ccc(F)cc3)n2)CC1
-16.3%	CCc1cnc2c(c1SCC(=O)c1ccccc1)c(=O)n(C)c(=O)n2C
-10.0%	Cc1cc(NC(=O)c2ccc3c(c2)OCCO3)cc(-c2nc3ccccc3o2)c1O
14.8%	Cn1nc(C(=O)NCc2ccc(F)cc2)c2c1-c1ccccc1SC2
-0.7%	CCCN(C(=O)c1cc2c(=O)n(CC)c3ccccc3c2s1)c1ccccc1F
-1.7%	CCN1CCN(Cc2c(O)ccc3oc(C)c(C(=O)Nc4cccc(Cl)c4C)c23)CC1
3.2%	O=C(NC1CC(=O)N(c2ccc(F)cc2)C1)C1CCCC1 (stereo not drawn)
-0.4%	CCCN(CCC)CCCNC(=O)c1sc2nc3n(c(=O)c2c1C)CCC3
?	CC(=O)c1cccc(NC(=O)CCCSc2nc(-c3ccco3)cc(C(F)(F)F)n2)c1
-12.3%	CCCn1cc(S(=O)(=O)c2ccc(CC)cc2)c(=O)c2ccccc21
23.2%	CCc1ccc(Sc2cc(C(=O)NC(C)CC)c3ccccc3n2)cc1 (stereo not drawn)
-14.7%	COc1ccccc1-c1nnc(C2CCN(C(=O)c3ccc(C)cc3)CC2)o1
-6.9%	CCOc1ccc(NC(=O)NCCCN2CCN(c3ccc(F)cc3)CC2)cc1

As entered above:
In miR-21 reporter, Cn1cc(S(=O)(=O)N2CCCCCC2)cc1C(=O)N1CCN(c2cccc(C(F)(F)F)c2)CC1 has the entry 14.9%
In miR-21 reporter, COc1cccc(NC(=O)C2CCN(c3nn4cc(-c5ccc(F)cc5)nc4s3)CC2)c1 has the entry -12.5%
In miR-21 reporter, COc1ccccc1-c1nnc(C2CCN(C(=O)c3ccc(C)cc3)CC2)o1 has the entry -14.7%
In miR-21 reporter, CC(C)c1cnc2c(c1SCC(=O)Nc1cccc([N+](=O)[O-])c1)c(=O)n(C)c(=O)n2C has the entry 13.5%
In miR-21 reporter, Cc1cc(C)cc(NC(=O)N2CCC(CN3CCCCCC3)CC2)c1 has the entry -0.2%
In miR-21 reporter, CCCN(C(=O)c1cc2c(=O)n(CC)c3ccccc3c2s1)c1ccccc1F has the entry -0.7%

Returning to the listing with the three entries that preceded the break.
miR-21 reporter	SMILES
23.2%	CCc1ccc(Sc2cc(C(=O)NC(C)CC)c3ccccc3n2)cc1 (stereo not drawn)
-14.7%	COc1ccccc1-c1nnc(C2CCN(C(=O)c3ccc(C)cc3)CC2)o1
-6.9%	CCOc1ccc(NC(=O)NCCCN2CCN(c3ccc(F)cc3)CC2)cc1
-4.1%	CCC(=O)N1c2ccc(S(=O)(=O)CCC(=O)NCc3cccc(OC)c3)cc2CC1C (stereo not drawn)
-12.5%	COc1cccc(-c2cc(C(=O)Nc3cnn(Cc4ccc(Cl)cc4Cl)c3)no2)c1
-1.8%	COc1ccccc1CNC(=O)CN1C(=O)CCn2nc(-c3ccccc3)cc21
-30.2%	CC(=O)Nc1ccc2nc(SCCOc3ccccc3)sc2c1
3.9%	COc1ccc(/C=C/C(=O)Nc2ccc(Cl)c(Cl)c2)cc1OC
8.6%	CCc1ccc(NC(=O)c2ccc(F)c(S(=O)(=O)N3CCC4(CC3)OCCO4)c2)cc1
3.9%	CCOC(=O)c1c(C)[nH]c(C)c1S(=O)(=O)NCC(=O)Nc1cc(C)ccc1OC
-10.3%	CCOc1ccc(NC(=O)c2sc(-n3nc(C)c(CCC(C)C)c3C)nc2C)cc1
-4.1%	Cc1cc(C(=O)NCc2ccccc2)c2c(C)nn(-c3cccc(Cl)c3C)c2n1
1.6%	CCOc1ccc(C2C(C(N)=O)=C(C)Nc3nc(-c4cccc(Cl)c4)nn32)cc1OC (stereo not drawn)
13.0%	CCOC(=O)c1cccc(NC(=O)c2ccc3nc(Cc4ccccc4)oc3c2)c1
6.7%	COc1cc(NC(=O)CCCN2C(=O)CCn3nc(-c4cn(C)c5ccccc45)cc32)cc(OC)c1
-2.6%	Cn1cc(-c2cc3n(n2)CCC(=O)N3CC(=O)NCc2ccccc2)c2ccccc21
-13.2%	Cc1ccn2c(=O)c(C(=O)Nc3ccc(F)c(C(F)(F)F)c3)cnc2c1
-3.4%	Cc1cc(NS(=O)(=O)c2ccc(NC(=O)COc3c(C)ccc(C)c3C)cc2)nc(C)n1
-7.6%	CCOc1ccc(S(=O)(=O)Nc2ccc(-c3ccc(N4CCCC4)nn3)cc2)cc1
-22.7%	Cc1ccc2c(c1)N(C(=O)N1CCC(C(=O)NCc3cccs3)CC1)CC(C)O2 (stereo not drawn)
8.8%	COc1ccc(-c2cnnn2-c2ccc(NC(=O)c3ccc(S(=O)(=O)N(C)C)cc3)cc2)cc1
-0.2%	CCOc1cc(CNC(=O)c2cc(-c3ccc(Cl)s3)nc3ccccc23)ccc1OC
-30.7%	COc1ccc(-n2ccnc(NCc3cccs3)c2=O)cc1
3.5%	COc1ccc(OC)c(-c2noc(N3CCN(c4cc(C)ccc4C)CC3)n2)c1
